MgrA DNA FP: alters Staphylococcus aureus MgrA binding to DNA; 0.13% of 84,000 active; fluorescence polarization; inhibition, %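 (about 10 µg/mL by stock and volumes)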; AID 602314;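 active = above 50% in either of two replicates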;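 also: 0% = protein plus DNA without compound and 100% = DNA alone without protein; higher means less MgrA bound to DNA so lower polarization; one replicate is shown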
S aureus helic: blocks Staphylococcus aureus DNA helicase; purified S. aureus helicase, fluorescence unwinding assay; about half of the hits fall short of the stated cut; inhibition, %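 (tested at about 80 µM)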; 0.05% of 120,000 active;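 active = both duplicates at 50% or more, or one of them with a favoured structure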;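 also: 0% = mean of negative control wells and 100% = mean of positive control wells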
* = called active by the depositor; . = no result given. An excerpt; rates above refer to the full screens.

Under each structure: MgrA DNA FP | S aureus helic
#1 O=C(c1ccc(S(=O)(=O)N2CCOCC2)cc1)N1CCN=C1SCc1c(F)cccc1Cl
  1.0 | 16
#2 COC(=O)CSc1nccc(-c2ccc3c(c2)CCC(C)(C)O3)n1
  3.8 | .
#3 O=C(OC1CCOC1=O)c1cc(-c2ccco2)nc2ccccc12 (stereo unspecified)
  . | 24
#4 CCSc1nnc(-c2cccs2)n1Cc1ccccc1
  . | 3
#5 CCOC(=O)c1c(C)n(C)c2ccc(OCC(O)CN3CCCCCC3)cc12 (stereo unspecified)
  . | 53
#6 O=C(NCc1ccco1)c1cnn2ccccc12
  . | -13
#7 CCOC(=O)c1ncoc1-c1ccc(OC)cc1
  -2.8 | .
#8 O=C(CCc1c[nH]c2ccccc12)OCc1c(Cl)cccc1Cl
  -0.8 | 6
#9 Cc1ccc(-c2noc(CCC(=O)NCC3CCN(Cc4cccc(C)c4)CC3)n2)cc1
  . | 14
#10 O=C1CCCc2nc3c(cc21)C(=O)CCC3
  -0.7 | .
#11 CC(C)(C)C(=O)CSc1ncnc2nc[nH]c12
  -0.3 | -3
#12 CN(C)C(CNC(=O)Nc1cccc(Cl)c1)c1cccnc1 (stereo unspecified)
  0.3 | -3
#13 CCOC(=O)c1cnc(SCc2cccc(C(F)(F)F)c2)nc1N
  -2.1 | .
#14 O=C(/C=C\c1ccco1)Nc1c2c(nn1-c1ccc(Cl)cc1)CSC2
  . | 1
#15 O=C1c2ccccc2C2CC(c3ccc(Cl)cc3)=NN12 (stereo unspecified)
  . | 25
#16 CCN=C1SC(CC(=O)Nc2ccc(F)cc2)C(=O)N1CC (stereo unspecified)
  -2.0 | .
#17 CN(C)c1ccnc2sc(C(N)=O)c(N)c12
  1.3 | -1
#18 CSc1ccccc1NC(=O)c1cc(-c2ccccc2)on1
  -9.3 | 8
#19 Cn1c(NCc2ccccc2)nc2ccccc21
  -3.3 | 7
#20 O=C(CCc1nc2ccccc2[nH]1)NCc1ccc(F)cc1Cl
  -5.0 | 4
#21 Cc1cc(OCC(O)CNC(C)(C)C)ccc1C(C)C (stereo unspecified)
  -1.7 | -6
#22 CCOC(=O)c1c(C)oc2nc(COc3cc(Cl)ccc3Cl)nc(N)c12
  . | 5
#23 CC1(C)CC(N(CCCO)C(=O)c2ccccc2)CCO1 (stereo unspecified)
  . | -5
#24 Cc1nn(-c2ccc(F)cc2)c(Cl)c1C=Nc1cccc(C#N)c1
  1.8 | 3
#25 Cc1cc2cc(CN(Cc3ccccc3)C(=O)N(C)C)c3nnnn3c2cc1C
  -0.9 | -1
#26 O=C(COC(=O)C1CC2C=CC1C2)Nc1cccc(C(F)(F)F)c1 (stereo unspecified)
  . | 32
#27 Cc1cccnc1Nc1nc(-c2cccnc2)cs1
  -1.5 | 10
#28 COc1ccccc1NC(=O)Cc1noc(CSc2cccc[n+]2[O-])n1
  . | 5
#29 O=C(COc1ccc(Cl)cc1Cl)NCCO
  -2.2 | 7
#30 CC(C)CCOc1ccc(C2(C)NC(=O)N(CN3CCOCC3)C2=O)cc1 (stereo unspecified)
  -3.5 | 4
#31 CCOc1ccc(S(=O)(=O)N/N=C(\C)c2cccnc2)cc1
  . | 17
#32 O=C1COc2ccc(C(=O)CSc3nnc(-c4ccc(O)cc4)c(-c4ccc(O)cc4)n3)cc2N1
  0.1 | 5
#33 c1ccc2c(CCc3ccncc3)c[nH]c2c1
  -0.1 | .
#34 CS(=O)(=O)N(CCC#N)Cc1ccco1
  -3.6 | 17
#35 CCCc1c(C(=O)NC2CCN(Cc3ccccc3)CC2)cnn1-c1ccccc1
  0.2 | .
#36 CCn1c(SCC(=O)N2CCCC2)nc2ccccc21
  . | 13
#37 CC(C)(C)C1CCc2[nH]c3ccccc3c2C1 (stereo unspecified)
  -0.2 | 6
#38 O=C1CC(c2ccccc2)Cc2nc3ncnn3cc21 (stereo unspecified)
  -0.6 | 10
#39 N/C(=N\c1nc(=O)c2ccccc2s1)NC(=O)Nc1ccc(F)cc1
  -0.2 | 4
#40 FC(F)(F)c1cnc(CN2CCSCC2)c(Cl)c1
  -0.1 | .
#41 NNC(=O)Cn1nnc(N2CCOCC2)n1
  . | 15
#42 COC(=O)CC(C1=C(O)CCCC1=O)C1=C(O)CCCC1=O
  -0.3 | 3
#43 CC(C)(C)c1ccc(O)c(C(C)(C)C)c1O
  0.4 | 2
#44 O=S1(=O)NC(c2cccc(Br)c2)Nc2ccccc21 (stereo unspecified)
  -0.3 | 6
#45 CCn1c(C(=O)N2CCC(C(=O)NC3CCC(C)CC3)CC2)cc2sccc21 (stereo unspecified)
  . | 8
#46 CCN1CCCC1CNc1cc(C)c2ccc(C)cc2n1 (stereo unspecified)
  . | -13
#47 Cn1c(=O)[nH]c(=O)c2c1nc(Sc1ccccc1)n2Cc1ccccc1
  1.4 | -3
#48 COc1ccc(C(=O)N2N=C(c3c(-c4ccccc4)c4cc(Br)ccc4[nH]c3=O)CC2c2ccco2)cc1 (stereo unspecified)
  -0.4 | .
#49 COc1cc(CNCCO)c(Br)cc1OCC(N)=O
  2.2 | -19
#50 CCN(C(=O)c1cc2ccccc2oc1=O)c1ccccc1
  . | -25
#51 C/C(=N/O)C1CCCCCCCCCCC1
  0.9 | 12
#52 CCCOc1cccc(C(=O)Nc2ccc(OC(=O)c3cccc(OCCC)c3)c(-c3nc4ccccc4o3)c2)c1
  1.5 | .
#53 CN(/N=C/c1ccccc1)c1ncc(C(F)(F)F)cc1Cl
  0.8 | .
#54 O=C(N1CC23C=CC(CC2CC12CCCCC2)O3)C(F)(F)F (stereo unspecified)
  -1.1 | -16
#55 CC1CCCCN1C(=O)CNC(=O)Cc1ccc(Cl)cc1 (stereo unspecified)
  1.3 | -18
#56 COc1ccccc1C(=O)OCc1ccc(F)cc1
  0.6 | -7
#57 O=C(O)CC1(CC(=O)NCc2ccccc2)CCCCC1
  -6.6 | .
#58 NC(=O)c1ccc(C(N)=O)cc1
  -1.4 | 7
#59 Cc1oc2cc(OC(=O)C(C)NC(=O)OCc3ccccc3)ccc2c(=O)c1Oc1ccccc1 (stereo unspecified)
  -0.3 | -7
#60 O=c1c(NCCCN2CCOCC2)c(Br)cnn1-c1ccccc1
  -2.0 | 5

Arranged by value in MgrA DNA FP (low to high): 4 from the list above
Under each structure: MgrA DNA FP | S aureus helic
#30 CC(C)CCOc1ccc(C2(C)NC(=O)N(CN3CCOCC3)C2=O)cc1 (stereo unspecified)
  -3.5 | 4
#54 O=C(N1CC23C=CC(CC2CC12CCCCC2)O3)C(F)(F)F (stereo unspecified)
  -1.1 | -16
#42 COC(=O)CC(C1=C(O)CCCC1=O)C1=C(O)CCCC1=O
  -0.3 | 3
#47 Cn1c(=O)[nH]c(=O)c2c1nc(Sc1ccccc1)n2Cc1ccccc1
  1.4 | -3

Next structures follow.
Under each structure: MgrA DNA FP | S aureus helic
#61 C=CCn1c2ccccc2c2ccccc21
  1.0 | -7
#62 CCn1nnnc1SCC(=O)c1ccc(OC)cc1OC
  0.8 | 4
#63 CC1OC(Nc2ccc(OC(F)(F)F)cc2)C(O)C(O)C1O (stereo unspecified)
  -0.6 | 5
#64 c1csc(Cn2cccc2)c1
  -2.6 | .
#65 CN1CCN(S(=O)(=O)c2ccc(Sc3nnc(-c4cccs4)n3-c3ccccc3)nc2)CC1
  . | -2
#66 Cc1cc(C(=O)CN2C(=O)NC(C)(c3ccccc3)C2=O)c(C)n1C (stereo unspecified)
  . | -6
#67 S=C(NCCCN1CCOCC1)N1CC2CCC(CC2)C1
  0.4 | .
#68 Cc1sc2nc3ccc(N4CCCCC4)nn3c(=O)c2c1C
  . | 33
#69 O=C(CN1CCCCC1)NC1CC2CCC1C2 (stereo unspecified)
  2.3 | -19
#70 CCOC(=O)Nc1ccc2c(COC(=O)[C@H](C)NC(=O)c3ccco3)cc(=O)oc2c1
  . | -9
#71 O=C(/C=N/O)NCC1CCNCC1
  . | 12
#72 CC1Cc2cc(C(=O)Nc3ccc(C(F)(F)F)cc3)ccc2N1S(C)(=O)=O (stereo unspecified)
  . | 6
#73 COc1ccc(CCNC(=O)c2cc3n(n2)C(C(F)(F)F)CC(C2CC2)N3)cc1OC (stereo unspecified)
  2.5 | 7
#74 CC1=Nc2ccccc2NC(C)(C)C1
  . | 20
#75 C=CCSc1nnnn1-c1ccc(O)cc1
  -0.1 | .
#76 CSc1nc(SC)c(C#N)c(-c2ccco2)n1
  -0.9 | .
#77 Cc1nc2ccccc2n1C(=O)N(C)C
  0.6 | 1
#78 N#CCC(=O)c1ccc(F)cc1
  . | -4
#79 COc1cc(Nc2nc3ccccc3nc2N=CN(C)C)cc(OC)c1OC
  . | 7
#80 COC(=O)C1=C(C)N(C)C(=O)NC1c1ccccc1 (stereo unspecified)
  . | 1
#81 COC(=O)CSc1nnc(-c2c[nH]c3ccccc23)n1C
  . | 4
#82 CC1(C)OC(=O)C(=Cc2ccc(-c3ccccc3)o2)C(=O)O1
  . | 41
#83 Cn1ccnc1SCc1csc(-c2ccccc2)n1
  -2.1 | -11
#84 Cc1oc(-c2cccc(Cl)c2)nc1CN1C(=O)CCCc2ccccc21
  . | -28
#85 Cn1c(-c2ccccc2)cn2nc[n+](C)c12
  . | -8
#86 CCOC(=O)C1CCCN(C(=O)c2cn(CC)c3ccc(S(=O)(=O)N(C)C4CCCCC4)cc3c2=O)C1 (stereo unspecified)
  . | -17
#87 CCCn1c(SCc2cc(OC)c(OC)cc2C)n[nH]c1=O
  . | 6
#88 COC(=O)c1sccc1NC(=O)Nc1cc(C)oc1C(F)(F)F
  . | 0
#89 COc1ccc(OCC(=O)NCc2ccc(-c3nc4ncccc4o3)cc2)cc1
  0.4 | -10
#90 C/C(=N\N=C1\NC(=O)C(CC(=O)Nc2ccc(C)c(Cl)c2)S1)C(C)(C)C (stereo unspecified)
  3.6 | 5
#91 CN(C)c1cccc(C(=O)OCC(N)=O)c1
  -1.0 | 3
#92 CCOC(=O)c1ccccc1NC(=O)/C(C#N)=C/c1ccc(-c2ccc(Cl)cc2)o1
  . | -97
#93 O=C(O)c1ccccc1SCc1cn2cc(Br)ccc2n1
  -3.7 | -15
#94 O=c1[nH]c(=O)n(Cc2ccccc2)c2nc[nH]c12
  0.1 | -5
#95 CCC(=O)Nc1c(C#N)c(C)c(C)n1Cc1cccs1
  -0.7 | .
#96 COC(=O)c1sc(-c2ccccc2)cc1NC(=O)c1ccccc1
  . | -20
#97 O=C1Nc2ccc(I)cc2/C1=C/c1cc(Br)c(O)c(Br)c1
  -0.3 | .
#98 O=C(OCc1ncc(-c2ccccc2)o1)c1ccc(Cl)nc1
  . | -12
#99 COc1ccc(CC2SC(N)=NC2=O)cc1 (stereo unspecified)
  . | -19
#100 Cc1ccc(OCCCn2cc(/C=C3/C(=O)NC(=O)N(C4CCCCC4)C3=O)c3ccccc32)cc1
  0.2 | -55
#101 COc1ccc(-c2ccc(/C=C3\C(=O)N(c4ccc(S(N)(=O)=O)cc4)N=C3C)o2)c([N+](=O)[O-])c1
  -0.5 | .
#102 O=C(N1CCCCCC1)C12CC3CC(CC(Cl)(C3)C1)C2
  -2.0 | 13
#103 O=C(CCc1ccco1)N(Cc1cccs1)c1ccc2c(c1)OCCO2
  . | 17
#104 Cc1ccccc1-n1c(N)cc(=O)[nH]c1=S
  1.4 | 17
#105 CN(C)c1nc(C(N)=O)nc(N(C)C)n1
  3.0 | 4
#106 C/C=C/C=N/Nc1nc2ccccc2s1
  . | -5
#107 COc1ccc(S(=O)(=O)CCC(=O)Nc2cc(C)ccc2OC)cc1
  . | 4
#108 CSc1nc(C)nc(-c2ccccc2)c1C#N
  0.6 | .
#109 COc1ccccc1-c1nnc(SCc2cccc(S(=O)(=O)N(C)C)c2)n1N
  . | 7
#110 CCc1ccc(NC(=O)/C=C/c2ccc(N3CCC(c4ccccc4OC)CC3)c([N+](=O)[O-])c2)cc1
  -2.2 | .
#111 N#Cc1cccc(NC(=O)CSc2ccccc2Cl)c1
  1.8 | 5
#112 Nc1nc(CNS(=O)(=O)c2cccc3nsnc23)nn1S(=O)(=O)c1cccc2nsnc12
  . | -27
#113 O=C(O)c1nn(-c2ccccc2)c2c1CCc1occc1-2
  3.3 | 14
#114 COC(=O)c1sccc1OCc1ncc(C(F)(F)F)cc1Cl
  -1.5 | .
#115 Cc1ccc2c(c1)sc(=NC(=O)c1cccc(N3C(=O)CCC3=O)c1)n2C
  . | 13
#116 Cc1ccc(-c2nnc(OCCN3CCOCC3)c3ccccc23)cc1
  . | 7
#117 O=C(CNc1cc(C(F)(F)F)ccc1N1CCOCC1)N1CCc2ccccc2C1
  0.6 | -14
#118 COc1ccc(C2CC(c3cccs3)=NN2C(=O)CSc2nc3ccccc3s2)cc1 (stereo unspecified)
  2.6 | 8
#119 CN(Cc1ccccc1)C(=O)c1cc2nc(-c3ccco3)cc(C(F)(F)F)n2n1
  0.6 | 10
#120 O=C(N/N=C/c1ccco1)c1cccnc1
  0.3 | .

Given screen by screen: entries from further up
102	O=C(N1CCCCCC1)C12CC3CC(CC(Cl)(C3)C1)C2
103	O=C(CCc1ccco1)N(Cc1cccs1)c1ccc2c(c1)OCCO2
104	Cc1ccccc1-n1c(N)cc(=O)[nH]c1=S
105	CN(C)c1nc(C(N)=O)nc(N(C)C)n1

compound no.,102,103,104,105
MgrA DNA FP,-2.0,.,1.4,3.0
S aureus helic,13,17,17,4

Continuation:
Under each structure: MgrA DNA FP | S aureus helic
#121 CC(C)NS(=O)(=O)c1ccc(NC(=O)CSC(C)(C)C)cc1
  . | -3
#122 CC(=O)N(Cc1cc2cc(C)ccc2[nH]c1=O)C1CCCC1
  -0.2 | 14
#123 Cc1ccc(N(Cc2ccccc2)C(=O)c2cccnc2)cc1
  . | -15
#124 CC1CN(C(=O)C(C)Oc2ccccc2)CC(C)O1 (stereo unspecified)
  0.3 | 7
#125 CCCCCCn1nc(C(=O)OCC(=O)c2ccc[nH]2)c2ccccc2c1=O
  . | 3
#126 COc1ccc(N(C(N)=S)C2=NCCCCC2)cc1
  . | -4
#127 O=S(=O)(Nc1ccccc1)C(F)(F)F
  . | -17
#128 CCCCCCCCCCOCCC(=O)O
  6.9 | .
#129 Cc1c(C)c(C)c(Cc2c(C)c(C)c(C)c(C)c2C)c(C)c1C
  -1.1 | .
#130 Cc1nc2c(=O)oc3ccccc3c2n1-c1ccccc1
  -0.8 | 3
